CSC inhib: blocks cancer stem cells | AID 2717 | hit rate 1.1% among 300,000 | cancer stem cell-like cells viability, luminescence | inhibition, % at 7.5 µM;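 active means mean at 75% or more and at least half the replicates too; inconclusive means mean and replicates disagree; tested in HMLE shEcad cells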;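 further: 0% = median of negative and 100% = median of positive control wells; the first replicate is given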
HIV Env fusion: blocks HIV Env-driven cell-cell fusion; inhibition, % at 12.3 µM; AID 651610; hit rate 1.1% among 360,000; HeLa-JRFL Env/CEM21 cell fusion, luciferase;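 active means mean replicate inhibition score of at least 50 and every replicate individually at or above 50; inconclusive means only one of the two criteria met; inactive means mean below 50 and not all replicates reaching 50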;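 further: 0% = plate neutral controls and 100% = maraviroc near 300 nM; one replicate is shown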
Rce1 inhib: inhibitors of yeast Ras-converting enzyme. calls only. Q03530. yeast membranes, quenched prenylated peptide cleavage fluorescence. AID 2563. hit rate 0.27% among 290,000;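 active means fall in fluorescence gain of 50% or more versus controls, with final raw signal at or below 3038400; inconclusive means same 50% fall but final raw signal above 3038400; inactive means fall in fluorescence gain under 50%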;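 further: plate controls were neutral control wells for no effect and wells lacking membranes for full effect; tested at 10 µM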
Target sequence (Q03530 whole entry, looked up): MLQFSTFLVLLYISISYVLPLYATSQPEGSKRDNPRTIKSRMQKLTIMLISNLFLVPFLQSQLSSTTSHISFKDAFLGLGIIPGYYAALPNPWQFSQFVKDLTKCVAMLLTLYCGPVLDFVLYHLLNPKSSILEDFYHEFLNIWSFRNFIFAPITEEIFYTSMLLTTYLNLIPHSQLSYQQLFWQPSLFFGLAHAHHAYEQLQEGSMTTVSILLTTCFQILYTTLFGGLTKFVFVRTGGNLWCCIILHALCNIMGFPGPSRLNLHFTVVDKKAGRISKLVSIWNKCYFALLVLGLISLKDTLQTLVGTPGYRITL
eIF4H inh: inhibitors of RNA binding by human eIF4H; hit rate 0.94% among 290,000; eIF4H fluorescence polarization binding assay; Q15056; inhibition, % at 35 µM; AID 2012;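 active means 50% or more with normal probe brightness, or confirmed in later tests; inconclusive means above 50% with abnormal brightness, or retests that disagree; inactive means below 50% or failed in later tests; about a fifth of its hits are not listed in these tables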;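 further: calls also rest on retests at 20 µM and on dose response follow-up; 0% = protein and probe with vehicle and 100% = probe without protein; strong numbers were not always called active; many hits fall short of the cut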
MT1-MMP act inh: MT1-MMP (human) activation inhibition; AID 651647; HT1080 RFP-PRO-GFP cells, GFP/RFP ratio fluorescence, overnight; percent of plate control window, DMSO zero; GFP/RFP ratio change, % at 20 µM; P50281; hit rate 0.061% among 360,000;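 active means GFP/RFP ratio change of at least 30% with cell ATP level not reduced by more than half and red fluorescence within 50% of control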; further: strong numbers were not always called active
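system = RFP-PRO-GFP reporter HT1080 cells | dosing = 20 µM single dose, 1% DMSO | timing = overnight cell settling, then overnight compound exposure, 37 °C, 5% CO2 | read-out basis = GFP/RFP fluorescence ratio | controls = DMSO and RFP-L50D-GFP cell wells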
UUG fidelity: yeast start codon fidelity modulation. S. cerevisiae UUG-firefly luciferase reporter, luminescence/redox ratio. activity score, % at 18.7 µM. hit rate 0.13% among 350,000. AID 602363;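 active means replicate mean at a twofold rise or more, about +100% in these data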;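 further: firefly luciferase made from a UUG start codon reports start codon fidelity; reporter light over untreated wells divided by growth signal over untreated wells; some hits fall short of that in this replicate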
PABP FP inh: PABP-poly(A) binding inhibition; P11940; PABP-poly(A) RNA binding, fluorescence polarization; inhibition, % at 35 µM; hit rate 1% among 290,000;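 active means 50% or more with normal probe brightness, or confirmed in later tests; inconclusive means above 50% with abnormal brightness, or retests that disagree; inactive means below 50% or failed in later tests; about a fifth of its hits are not listed in these tables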;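 further: calls also rest on retests at 20 µM and on dose response follow-up; controls were probe without protein and protein plus probe with vehicle; some compounds called inactive have numbers as strong as hits; many hits fall short of the cut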
eIF4H inh retest: also measured in eIF4H inh; calls as there; inhibition, %; compound at 20 µM; confirmation average;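 mean of two retest wells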
PABP FP inh retest: also measured in PABP FP inh; calls as there; inhibition, %; compound at 20 µM; confirmation repeats;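 mean of two retest wells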
MT1-MMP act inh RFP: recorded beside MT1-MMP act inh, whose call it bears; RFP signal change, %; measured here: RFP expression control read;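 0 = vehicle wells; hits needed this value within 50% of zero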
* hit, by the source's call; i = inactive; ? = inconclusive; . = no result given; & = joins results of further samples; [ ] = remark or other dose. Hits appear at their usual frequency; about 3% have a hit in one of these screens.

SMILES	CSC inhib	HIV Env fusion	Rce1 inhib	eIF4H inh	MT1-MMP act inh	MT1-MMP act inh RFP	UUG fidelity	PABP FP inh	others
O=C(Nc1ccc(N2CCOCC2)cc1)c1cccnc1	-9.6	-36.2	i	-3.7	1.4	0.7	.	-2.1
COc1ccc(S(=O)(=O)N2CCC(C(=O)c3ccc4c(c3)OCCO4)CC2)cc1	-6.6	28.9	i	-1.4	-1.3	-9.3	-11.5	2.6
O=C(N/N=C/c1ccccc1F)c1cccc(NC(=O)c2ccccc2Cl)c1	-14.7	-16.2	i	8.3	-3.5	-0.2	-3.8	0.9
CC(C)(C)c1ccc(CC(=O)N2CCC2(C)C(=O)Nc2ccc3[nH]ncc3c2)cc1 (configuration not stated)	.	-2.3	.	.	3.9	-2.8	-10.8	.
CCC(=O)N1CCC1(C)C(=O)Nc1ccc(OC)c(OC)c1 (configuration not stated)	.	10.9	.	.	-0.4	3.6	-11.5	.
O=C(O)c1ccc(N/N=C/c2ccc3ncccc3c2)cc1	2.5	.	i	-5.0	2.1	1.7	-34.5	-9.8
Cc1ccc(Cn2c(C3CCCN3c3nc(-c4ccc(F)cc4)cs3)nc3cc(C(F)(F)F)ccc32)cc1 (configuration not stated)	26.4	18.7	i	.	-0.3	-2.7	-23.2	.
O=C(OC(C(=O)NCC1CCCO1)c1ccc(F)cc1)c1cccs1 (configuration not stated)	-5.1	.	i	-2.3	3.2	1.7	-18.7	53.3	eIF4H inh retest=-0.6;PABP FP inh retest=0.7
Cc1ccc(CN2CCN(CC(=O)N/N=C/c3ccc(C)o3)CC2)cc1	5.2	4.1	i	-5.2	1.8	5.2	-17.8	-2.1
O=C(/C=C/c1ccccc1)NC(=S)NNC(=O)c1ccco1	-11.7	.	i	12.6	7.1	4.7	-56.5	5.1
O=C(C1=C(O)C(=O)N(CCCn2ccnc2)C1c1cccc(Br)c1)c1ccco1 (configuration not stated)	-9.4	33.9	i	-9.1	-0.4	4.0	-24.9	17.2
Cc1ccc([N+](=O)[O-])cc1NC(=O)Nc1onc(C)c1C	-14.0	7.0	i	-1.7	-4.0	6.1	-14.3	1.6
O=C1CC(N2CCN(c3ccccc3Cl)CC2)C(=O)N1c1cccc(F)c1 (configuration not stated)	-5.9	.	i	-4.7	0.2	0.0	-18.3	10.2
CCOC(=O)CSc1ccc(C(=O)NCCCN2CCOCC2)cc1[N+](=O)[O-]	-19.3	7.5	i	0.1	3.3	3.5	-15.4	7.2
C=CCn1cccc(C(=O)Nc2ccc(OCC)cc2)c1=O	-9.2	-25.2	i	-7.0	3.6	-11.9	.	-2.2
CCN(CC)CCN(C(=O)c1cccc(N2C(=O)CCC2=O)c1)c1nc2cc3c(cc2s1)OCO3	-19.6	9.3	i	6.2	-9.2	0.3	-10.6	-6.0
C#CCOCCOCCOCCNc1nc(N2CCN(C(=O)CCCCCCCCCCNC(=O)[C@@H](CCSC)n3cc(CCO)nn3)CC2)nc(N2CCN(C(=O)CCCCCCCCCCNC(=O)[C@H]([C@@H](C)CC)n3cc(CCCCN=C(N)N)nn3)CC2)n1	-17.6	.	.	.	8.2	0.8	-10.1	.
CCC(C)C(NC(=O)OC(C)(C)C)C(=O)NCc1ccco1 (configuration not stated)	-1.8	.	i	-1.2	-1.9	-0.4	-12.6	-1.7
NC(N)=Nc1nc2ccccc2o1	-1.8	17.6	i	-12.4	2.2	1.7	-15.1	-3.4
COc1cc(CN(C)C)cc(C=O)c1O	4.7	.	i	2.2	2.5	2.0	.	-1.9
O=C(/C=C/c1ccccc1)NC(=S)Nc1cccnc1	-5.4	4.4	.	11.1	4.8	1.5	-16.4	1.7
Nn1c(COc2ccccc2F)nnc1SCC(=O)NCC1CCCO1 (configuration not stated)	.	3.6	.	.	2.1	5.5	-16.1	.
Cc1ccc(S(=O)(=O)Cc2cc(-c3ccc(Cl)cc3)no2)cc1	-4.1	10.1	i	1.2	1.0	-7.1	.	-2.9
Cc1ccc(C(=O)OCC(=O)Nc2ccc3[nH]c(=O)[nH]c3c2)cc1S(=O)(=O)N1CCOCC1	-10.2	-6.5	i	.	5.1	6.7	.	.
COc1ccccc1NC(=O)N(C)C[C@@H]1OCc2cn(nn2)CCCC(=O)N([C@@H](C)CO)C[C@H]1C	.	3.6[16.7 µM]	.	.	1.2	0.7	-2.6&4.1	.
Cc1nc(NC(=O)c2ccccc2)sc1-c1csc(NCc2ccccc2)n1	-2.8	.	i	-1.3	-5.1	-6.8	-33.7	4.4
COC(=O)Cn1c(=NC(=O)c2nc3ccccc3s2)sc2cc(S(N)(=O)=O)ccc21	28.2	-68.2	i	-4.7	24.1	11.3	.	2.8
CC(=O)c1cc(F)c(N2CCN(C(=O)C(C)(C)C)CC2)cc1C	4.5	6.5	i	6.0	-2.8	-1.3	2.4	-5.0
O=C(NC1CCCCCCC1)c1cc([N+](=O)[O-])ccc1Cl	-1.4	-1.2	i	-0.1	-0.9	-3.4	-3.5	2.8
C=CCNc1nc2c(c(=O)n(C)c(=O)n2C)n1Cc1ccc(F)cc1	3.8	25.4	i	-0.2	-0.8	-20.5	-1.2	5.0
Cn1c(N)c(C(=O)CSc2nnc(-c3ccccc3F)n2N)c(=O)n(C)c1=O	11.3	-1.8	i	0.7	-1.3	-2.4	-11.3	-5.7
CCCn1c(NC(=O)C23CC4CC(CC(O)(C4)C2)C3)nc2ccccc21	-2.3	-7.0	i	7.8	5.7	8.7	.	?
O=C(CNC(=S)N(CCCN1CCOCC1)Cc1cccs1)NCCN1CCOCC1	-11.3	-23.5	i	17.9	1.5	0.4	-18.8	4.4
O=C1c2cccnc2C(Nc2ccc(S(=O)(=O)N3CCCCC3)cc2)N1Cc1ccccc1 (configuration not stated)	-5.3	83.7*	i	1.6	-9.3	-2.6	.	-3.6
CCNC(=O)CC1C(=O)N(c2ccccc2)C(=O)N1Cc1ccc(OC)cc1 (configuration not stated)	-9.9	-106.0	i	3.5	2.5	0.7	-17.5	-2.5
CC(C)COc1ccc(CNC(=S)Nc2ccccc2)cc1Cl	26.1	-17.2	i	-5.5	-4.5	-16.3	-18.0	-2.1
O=C(O)c1ccc(COc2c(F)c(F)cc(F)c2F)cc1	4.7	-363.7	i	-2.8	3.8	1.4	-18.6	2.4
O=C(CCNS(=O)(=O)c1ccc(Br)cc1)NCc1cccs1	-2.5	-33.5	i	-7.4	-1.2	2.0	.	2.6
COc1cccc(-c2cc(C(F)(F)F)n3ncc(C(=O)NCC4CCCO4)c3n2)c1 (configuration not stated)	8.7	-3.9	i	5.3	6.6	-2.2	13.5	5.8
CCCNC(=O)C(Cc1ccccc1)NS(=O)(=O)c1cccc2nsnc12 (configuration not stated)	-1.2	-43.5	i	10.8	0.1	5.9	-4.4	-3.0
O=C(CCNC(=O)c1ccccc1Cl)N/N=C\c1ccc(O)cc1	-16.3	-51.7	i	1.4	2.5	1.8	-12.1	-7.6
O=C(NCc1cccs1)c1ccncc1	-4.3	-36.8	i	5.1	1.0	-1.0	-97.9	-11.3
O=C(NCc1ccccc1)C(c1ccncc1)N(C(=O)c1csnn1)C1CC1 (configuration not stated)	-12.1	-11.4	i	-9.1	0.2	-0.4	.	2.1
Cc1ccc(C(=O)Cn2nnc3c(sc4nc5c(c(-c6ccccc6)c43)CCC5)c2=O)cc1	85.8*	.	i	-11.1	1.3	-0.2	-6.0	-8.4
CCCN(CCC)C(=O)C1c2ccccc2Oc2ccccc21	3.3	.	i	-10.4	-50.3	-2.8	.	3.3
COc1ccc2c([N+](=O)[O-])c(Cl)[nH]c2c1	-6.1	-0.2	i	-0.9	0.2	-0.8	.	-7.2
O=C(Nc1ccccc1)c1c2c(nc3ccccc13)CCCC2	1.5	12.2	i	8.3	5.9	-1.6	5.1	5.1
COc1ccc(-n2c(=O)c3ccccc3c3ccccc3c2=O)cc1	.	25.3	i	1.5	3.7	1.7	-4.1	3.6
CCOC(=O)[C@H]1[C@H]2COc3ccc(Cl)cc3[C@@H]2N2C(=O)CN(C)C(=O)[C@@]12C	0.2	18.3	.	.	1.0	2.1	-5.8	.
C=CCNC(=S)NCCO	5.4	6.2	i	9.1	1.8	-4.1	37.7	-5.3
CC(=O)c1ccc(NS(=O)(=O)c2ccc(C(C)(C)C)cc2)cc1	-8.0	9.1	i	0.9	5.1	-11.8	.	-3.8
CCCC(=O)Nc1cccc(Oc2nc(C)cc(C)c2C#N)c1	1.7	.	i	-6.1	-0.5	-3.1	-6.4	-2.2
C/C(=N\N1CCN(Cc2ccccc2Cl)CC1)c1ccc(F)cc1	6.5	8.0	i	0.7	4.8	3.7	-18.1	-1.5
O=C(NCc1ccccc1)c1cc(C2COCCN2C(=O)c2ccccc2)on1 (configuration not stated)	.	-15.7	.	.	-2.1	-2.4	11.7	.
O=C(CSc1nc2ccc(Cl)cc2[nH]1)N1CCN(C(=O)c2ccco2)CC1	17.9	-6.4	i	9.9	-1.6	1.1	-4.0	-4.2
O=C(COc1ccccc1F)NNC(=O)c1cc(Br)ccc1Cl	7.1	-7.1	.	.	-2.0	3.2	7.6	.
COP(=O)(CN(Cc1ccccc1)C(=S)Nc1c(C)cccc1C)OC	11.1	0.0	i	3.4	-3.0	1.1	.	-8.4
O=C(CCCN1C(=O)c2cccc3cccc(c23)C1=O)Nc1ccon1	6.9	-2.8	i	-7.0	-2.1	0.3	.	2.7
O=C1CCNc2ccc(-c3ccccc3)cc21	-3.2	-5.1	i	5.6	-30.3	3.6	.	-1.0
COc1ccc(CNC(=O)CN2C(=O)CSc3ccc(S(=O)(=O)N4CCCCC4)cc32)cc1	-2.5	2.5	i	-4.0	0.7	2.5	-2.9	-1.8
(more compounds)
SMILES	CSC inhib	HIV Env fusion	Rce1 inhib	eIF4H inh	MT1-MMP act inh	MT1-MMP act inh RFP	UUG fidelity	PABP FP inh	others
Cc1ccc(S(=O)(=O)N2CCN(c3nc(C)c4c(c3C#N)CC(C)(C)OC4)CC2)cc1	.	.	.	-5.8	-5.2	-15.4	-9.3	-4.0
CCOC(=O)Cc1c(Cl)c2ccccc2[nH]c1=O	-9.8	-3.3	i	0.4	1.3	0.1	-5.5	-9.3
CC(OC(=O)C12CC3CC(CC(O)(C3)C1)C2)C(N)=O (configuration not stated)	-23.2	-3.9	i	-6.8	2.0	5.2	-11.7	-6.8
COc1ccc([C@H]2CC(=O)C=C(c3cccc(Br)c3)C2)cc1	23.2	-15.4	.	.	-0.1	-1.4	6.3	.
COc1ccc(-c2cc(=O)[nH]c(=O)[nH]2)cc1	-5.3	-46.8	i	5.0	-5.1	-0.3	-23.1	-1.7
CSc1nnc(-c2ccccc2)c(-c2ccccc2)n1	-6.2	-5.5	i	5.3	-2.5	-4.0	.	-0.1
CC#CCN1C(=O)N[C@@H](c2ccccc2)C(C(=O)OC)=C1C	-9.9	-23.7	i	.	4.7	0.2	-1.0	.
COc1ccc(C2c3c(oc4ccccc4c3=O)C(=O)N2c2ccccn2)cc1 (configuration not stated)	-1.5	-14.0	i	-3.8	4.2	1.2	-6.8	6.8
COC(=O)c1ccc(CN2CCN(Cc3ccccc3)C(CCO)C2)cc1 (configuration not stated)	-5.9	7.1	i	-6.6	-3.3	-1.0	.	-0.2

Screening results: PubChem BioAssay, several laboratories
